# Bioassay records as filed in PubChem.
# VDR inh: blocks the human vitamin D receptor; P11473; VDR-SRC2-3 peptide fluorescence polarization, 2 h; Potency, µM, for the others: max response, negative = inhibition, usual class: inhibitors; 400,000 compounds, 0.93% hits; AID 504847; active = well fitted inhibition curve with a large enough effect; inconclusive = small, poorly fitted or top-dose-only effect, or another doubt; inactive = no such curve, though single readings can be large or run the other way; note: series mostly up to about 120 µM
# Target sequence (P11473 whole entry, looked up): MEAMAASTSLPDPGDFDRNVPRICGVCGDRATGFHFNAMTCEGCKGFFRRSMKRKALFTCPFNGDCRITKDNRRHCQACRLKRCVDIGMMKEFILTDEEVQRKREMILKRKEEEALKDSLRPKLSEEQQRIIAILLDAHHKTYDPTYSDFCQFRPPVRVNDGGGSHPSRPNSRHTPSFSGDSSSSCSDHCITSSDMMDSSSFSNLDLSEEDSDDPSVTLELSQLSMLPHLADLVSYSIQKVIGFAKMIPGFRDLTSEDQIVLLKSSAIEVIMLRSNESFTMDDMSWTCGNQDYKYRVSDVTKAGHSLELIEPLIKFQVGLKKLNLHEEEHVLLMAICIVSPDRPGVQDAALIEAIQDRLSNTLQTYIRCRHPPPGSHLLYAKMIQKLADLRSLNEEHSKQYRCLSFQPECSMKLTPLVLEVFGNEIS
#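 Compounds are added to VDR with labelled SRC2-3 coactivator peptide and held 2 h at room temperature. Inhibition of the VDR–peptide interaction is then read as a change in fluorescence polarization.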
# Active calls of the source: *; ? = inconclusive; & = joins results of further samples; [ ] = another dose, or the depositor's remark. % is set by controls: 0 for no effect and ±100 for the full control effect; potency is the fitted concentration of half-maximal effect. These rows are one share of the data; rates above refer to the full screens.
# A first look (6 entries):
cpd | compound | VDR inh
1 | CCOC(=O)C1CCN(Cc2cccc(Oc3ccccc3)c2)CC1 | -11%
2 | COc1ccc(CNC(=O)COC(=O)c2ccc(C(=O)c3ccccc3)cc2)cc1 | 17%
3 | COc1ccc(/C=C2\SC(=S)N(CCC(=O)N3CCOCC3)C2=O)cc1 | -9%
4 | CC(=O)Nc1ccc(NC(=O)Cn2cc3c(n2)CCCCC3)cc1 | 18%
5 | O=c1nc(SCc2c(F)cccc2Cl)nc(-c2ccc(Cl)cc2)[nH]1 | -3%
6 | Cc1ccc(S(=O)(=O)NC(=O)c2ccccc2)cc1C(C)C | -13%

# Main list, repeating the preview:
cpd | compound | VDR inh
1 | CCOC(=O)C1CCN(Cc2cccc(Oc3ccccc3)c2)CC1 | -11%
2 | COc1ccc(CNC(=O)COC(=O)c2ccc(C(=O)c3ccccc3)cc2)cc1 | 17%
3 | COc1ccc(/C=C2\SC(=S)N(CCC(=O)N3CCOCC3)C2=O)cc1 | -9%
4 | CC(=O)Nc1ccc(NC(=O)Cn2cc3c(n2)CCCCC3)cc1 | 18%
5 | O=c1nc(SCc2c(F)cccc2Cl)nc(-c2ccc(Cl)cc2)[nH]1 | -3%
6 | Cc1ccc(S(=O)(=O)NC(=O)c2ccccc2)cc1C(C)C | -13%
7 | CCN1C(=O)NC(c2ccccc2)(c2ccccc2)C1=O | 2%
8 | Nc1nc2c(ncn2C2OC(COC(=O)c3ccccc3)C(OC(=O)c3ccccc3)C2OC(=O)c2ccccc2)c(=O)[nH]1 (stereo unspecified) | -2%
9 | CCOc1ncccc1C(=O)OCc1cc(=O)oc2c(C)c(C)ccc12 | -14%
10 | CC(=O)N1CCc2cc(NS(=O)(=O)c3cccs3)ccc21 | -8%
11 | CCOC(=O)c1c(C)[nH]c(C)c1C(=O)COC(=O)[C@@H](NC(=O)c1ccco1)C(C)C | -6%
12 | COc1ccc(CN(Cc2ccc(C(=O)O)cc2)C(=S)Nc2ccccc2F)cc1OC | -16%
13 | Cc1ccc(C(=O)NCCSc2ccccc2)cc1S(=O)(=O)Nc1ccccc1 | 3%
14 | O=C(COc1cccnc1[N+](=O)[O-])N1CCN(S(=O)(=O)c2ccc3ccccc3c2)CC1 | 0%
15 | NCCC[C@@H](CC(=O)N[C@@H]1CCNC[C@H]1C(=O)N[C@H](CC(=O)N[C@@H](CCC(=O)O)CC(=O)O)Cc1ccccc1)NC(=O)C[C@H](CO)NC(=O)[C@@H]1CNCC[C@H]1N | 6%
16 | COC(=O)c1ccc(-c2noc(CN(C)Cc3ccncc3C)n2)cc1 | 4%
17 | O=C(NCCc1nnc2ccc(N3CCCCCC3)nn12)c1ccccc1F | -11%
18 | C=CCn1c(SCC(=O)NC2CC2)nc2sc(CC)cc2c1=O | -21%
19 | CC(C)CCOc1cccc(OCC(=O)Nc2ccncc2)c1 | -3%
20 | CN(Cc1ccno1)C(=O)CC1C(=O)NCCN1CC(c1ccccc1)c1ccccc1 (stereo unspecified) | 3%
21 | COc1ccc(CC(=O)NCCc2ccc(OC)c(OC)c2)cc1 | -16%
22 | NC(=O)c1cccc2c3c([nH]c12)CCCC3 | -1%
23 | COc1ccc(-n2cc(C(=O)Oc3cc(C)cc(C)c3)c3ccccc3c2=O)cc1 | -4%
24 | O=C(N/C(=C\c1ccc(Br)cc1)C(=O)N1CCCC1)c1ccccc1F | 3%
25 | CCC[C@H]1C[C@H](C(=O)NC(C(C)Cl)C2O[C@@H](SC)C(OP(=O)(O)O)[C@@H](O)[C@@H]2O)N(C)C1 (stereo partly specified) | -16%
26 | Cc1ccc(NC2CCCN(C(=O)c3cccc(-c4ncc[nH]4)c3)C2)cc1C (stereo unspecified) | 0%
27 | CCn1c(=O)c2cc(C(=O)NCc3cc(OC)ccc3OC)sc2c2ccccc21 | -9%
28 | Cc1cccc(NC(=O)CN(c2ccc(C(C)C)cc2)S(=O)(=O)c2c(C)nn(C)c2C)n1 | 7%
29 | Cc1ccc(C(=O)NCC(=O)NC2CCC(C)CC2)s1 (stereo unspecified) | 6%
30 | COc1ccc(C(CCNC(C)c2ccccc2)c2ccc(F)cc2)cc1 (stereo unspecified) | -13%
31 | O=C(c1cc2cc(F)ccc2[nH]1)N1CCC(Cc2ccccc2)CC1 | -17%
32 | CN(C)c1ccc(/C=N\Nc2ccccn2)cc1 | 10%
33 | CC(c1ccc(F)cc1)n1cc(C(=O)NCCN(C)C)nn1 (stereo unspecified) | -5%
34 | CCCC1(C(=O)OCC)NC(c2ccc(N(C)C)cc2)C2C(=O)N(c3ccc(F)cc3)C(=O)C21 (stereo unspecified) | -21%
35 | CCOC(=O)C1CCCN(C(=O)c2cc3ncc(Br)cn3n2)C1 (stereo unspecified) | 2%
36 | CCN1CCN(c2oc(-c3ccc([N+](=O)[O-])cc3)nc2C#N)CC1 | -1%
37 | CC(C)OC(=O)C(NC(=O)c1ccccc1)=C1CCCCC1 | 19%
38 | C[C@H]1CN([C@@H](C)CO)C(=O)c2cccc(NC(=O)Nc3ccc(C(F)(F)F)cc3)c2O[C@@H]1CN(C)S(=O)(=O)c1ccc(Cl)cc1 | -2%
39 | CC1(C)CC(=O)C2=C(C1)Nc1ccccc1NC2c1ccccn1 (stereo unspecified) | -4%
40 | CN(C)NC(=O)c1csnc1-c1c(Cl)cccc1Cl | 8%
41 | CC(=O)Nc1ccc(S(=O)(=O)Nc2nnc(CC(C)(C)C)s2)cc1 | ?
42 | Cc1nc(N2CCCCC2)sc1C(=O)c1ccc(SCCO)c([N+](=O)[O-])c1 | ?
43 | Fc1ccc(-c2nc(Nc3cccc(Cl)c3)nc3c2COc2ccccc2-3)cc1 | 3%
44 | O=S(=O)(NCC1CCCO1)c1ccc(S(=O)(=O)N(Cc2ccc(F)cc2)C2CCCCC2)cc1 (stereo unspecified) | -3%
45 | O=C(Cc1cccs1)Nc1cccc(-c2ccc3nncn3n2)c1 | 4%
46 | COc1ccc(-n2c(C(C)n3nc(C)c([N+](=O)[O-])c3C)n[nH]c2=S)cc1 (stereo unspecified) | -2%
47 | CCOC(=O)c1c(C)[nH]c(C(=O)N/N=C/c2ccc(Br)cc2)c1C | -16%
48 | CCc1cc(C(=O)N/N=C/c2ccc(O)cc2O)c2ccccc2n1 | -2%
49 | [O-][N+]1=C2CCC/C(=N\O)C2=NC12CCCCC2 | -8%
50 | CCOC(=O)C1CCN(S(=O)(=O)c2ccc(Cl)s2)CC1 | -3%

# Next part:
cpd | compound | VDR inh
51 | Cc1cc2occ(CC(=O)Nc3nnc(C4CC4)s3)c2cc1C | -6%
52 | CC(=O)NNC1=Nc2ccccc2N(C)C(C)C1 (stereo unspecified) | -2%
53 | CC(C)c1ccc(CNc2nc(-c3ccco3)nn2C(=O)c2ccc([N+](=O)[O-])cc2)cc1 | 4%
54 | Cc1ccc(CNC(=O)CSCC(=O)O)cc1 | -8%
55 | O=C(NCCN1CCOCC1)c1ccc2c(c1)N(Cc1ccccc1)CCS2 | ?
56 | Cc1ccccc1-c1nc(CS(=O)(=O)CC(=O)NCCc2ccccc2)c(C)o1 | 5%&-1%
57 | Cc1ccc2nc3c(cc(C(=O)NCC4CCCO4)c(=N)n3CC3CCCO3)c(=O)n2c1 (stereo unspecified) | -4%
58 | CC(SCc1ccccc1)C(=O)N/N=C/c1cc2c(cc1Br)OCO2 (stereo unspecified) | 56%[activator]
59 | Cc1nc(S(=O)(=O)N(C)Cc2ccccc2)c(C#N)c(C)c1Cl | -13%
60 | CCOCCCNC(=O)CCN1C(=O)c2ccccc2Sc2ncccc21 | 9%
61 | COc1cccc(C(=O)OCc2cc(=O)oc3c(C)c(C)ccc23)c1OC | ?
62 | CN(CCc1ccccc1)C(=O)c1ccc(NC(=O)Cc2ccc(NC(=O)C3CCN(C(=O)C4CCC4)CC3)cc2)cc1 | -28%
63 | O=C(/C=C/c1ccccc1)OCCN=C1NS(=O)(=O)c2ccccc21 | -4%
64 | C[C@H](NC(=O)c1ccccc1)C(=O)OCC(=O)Nc1ccc2c(c1)OCO2 | 0%
65 | Cc1c(NC(=O)C(C)(C)C)cccc1-c1nc2ccccc2s1 | 5%
66 | COc1cc(SC)ccc1C(=O)OCC(=O)NC1CCCCC1 | -8%
67 | CC(CCc1ccccc1)NS(=O)(=O)c1ccc(Cl)c(C(=O)O)c1 (stereo unspecified) | ?
68 | Oc1ccc(/C(Cc2ccc3ccccc3n2)=N\Nc2ccccc2)c(O)c1 | -25%
69 | CCN1CCC(=NNC(=O)CC23CC4CC(CC(C4)C2)C3)CC1 | 11%
70 | O=C(CSc1nc(O)c(Cc2ccccc2)c(=O)[nH]1)Nc1nc2c(s1)CCCC2 | -20%
71 | O=C(CN1C2CCCC1CC(NC(=O)c1ccccc1)C2)Nc1nccs1 (stereo unspecified) | -3%
72 | COc1ccc(/C=N/NC(=O)c2c(C)nc3ccc(Cl)cn23)cc1OC | -5%
73 | CCCCOc1ccc(CNC(=O)NS(=O)(=O)c2ccc(OCC(C)C)cc2)cc1 | -8%
74 | Cc1csc(=O)n1CCC(=O)OCc1nnc(-c2ccc(Cl)cc2)o1 | 8%
75 | CCN(CC(=O)NCc1cccs1)C(=O)c1ccc(S(=O)(=O)Nc2ccccc2)cc1 | -5%
76 | CCOC(=O)c1c(NC2OC(=O)c3c2ccc(OC)c3OC)sc(C(=O)OC(C)(C)C)c1C (stereo unspecified) | ?
77 | CCOc1ccc(/C=N/NC(=S)NC2CC3C=CC2C3)cc1 (stereo unspecified) | -16%
78 | Cc1ccnc(NC(=O)c2cccc(S(=O)(=O)N3CCOCC3)c2)c1 | 3%
79 | Cc1ccc(NC(=O)c2cc(NC(=O)/C=C\C(=O)O)ccc2N2CCCCC2)cc1 | -22%
80 | CC(C)NC(=O)/C=C/C(=O)O | -12%
81 | COc1ccc(C(=O)/C=C/c2ccccc2C(F)(F)F)cc1 | ?
82 | CC(OC(=O)CC(C)c1ccccc1)C(=O)Nc1ccc(Cl)cn1 (stereo unspecified) | 2%
83 | O=C(Nc1ccccc1C(=O)N1CCOCC1)c1ccc(CSc2ccccc2)cc1 | ?
84 | CCOc1cc(/C=N/N=C(\N)c2nonc2N)cc(Br)c1OCc1cccc2ccccc12 | -7%
85 | CCC(CC)c1nnc(NC(=O)c2ccc(S(=O)(=O)N3CCc4ccccc4C3)cc2)s1 | 0%
86 | Cc1c2cccn2cc[n+]1C | 0%
87 | Cc1ccc(NC(=O)c2cc3ccccc3o2)cc1S(=O)(=O)N(C)C | -2%
88 | Cc1sc(C2C(C#N)=C(N)N(c3cccc(Cl)c3)C3=C2C(=O)CCC3)cc1CN1CCOCC1 (stereo unspecified) | -29%
89 | Cc1cc(C)c2oc(C(=O)N(Cc3cccs3)C3CCS(=O)(=O)C3)cc(=O)c2c1 (stereo unspecified) | -12%
90 | Cc1cccc(OCC(=O)Nc2ccccc2N2CCN(C(=O)C(C)C)CC2)c1C | -1%
91 | COc1cccc(C(=O)NCC(=O)OCC(=O)Nc2ncc(Cl)cc2Cl)c1 | -6%
92 | CCOC(=O)C1CCCN(C(=O)c2cc(=O)c3ccccc3o2)C1 (stereo unspecified) | -4%
93 | C[C@@H]1CN([C@H](C)CO)C(=O)Cc2cc(NC(=O)Cn3cnnn3)ccc2O[C@@H]1CN(C)Cc1ccc(Cl)c(Cl)c1 | -10%
94 | CC(NC(=O)C1CCN(S(=O)(=O)c2ccc3c(c2)NC(=O)CO3)CC1)c1ccccc1 (stereo unspecified) | 2%
95 | CSc1cc(C)n(-c2ccc(Cl)cc2)c(=S)c1C(C)=O | -6%
96 | CC(=O)Nc1ccc(C(=O)N/N=C/c2ccccc2OCc2ccccc2)cc1 | 12%
97 | Cc1cccc(NC(=O)CN(C)C(=O)C2CCCC2)c1C | 3%
98 | COC(=O)c1ccc(NC(=O)c2cc(S(=O)(=O)N3CCc4ccccc43)cn2C)cc1 | 0%
99 | COCCn1c(=N)c(C(=O)NCCc2ccc(OC)cc2)cc2c(=O)n3cccc(C)c3nc21 | 11%
100 | Cn1c(NC(=O)c2ccccc2)cc(=O)n(C)c1=O | 13%

# (cont.)
cpd | compound | VDR inh
101 | CCN(CC)c1ccc(NC(=O)c2cccc(OC)c2)c(C)c1 | 14%
102 | CC(=O)c1ccc(N2CCN(C(=O)c3ccc(NC4=NC5CS(=O)(=O)CC5S4)cc3)CC2)cc1 (stereo unspecified) | -21%
103 | Cc1ccc(Cn2c(CCCO)nc3ccccc32)cc1 | 4%
104 | NC(=O)CC(NSc1ccccc1[N+](=O)[O-])C(=O)O (stereo unspecified) | ?
105 | Cc1cccc(N(C)S(=O)(=O)c2ccc3[nH]cc(C(=O)N4CCOCC4)c(=O)c3c2)c1 | -6%
106 | CN(C)c1ccc(C(=S)N2CCN(C(=S)Nc3ccc(Cl)cc3)CC2)cc1 | -24%
107 | Cc1nn(CCCC(=O)Nc2cccnc2)c(C)c1[N+](=O)[O-] | 1%
108 | CCCCN1C(=O)N(C)C2NC(=O)NC21 (stereo unspecified) | -20%
109 | Cc1cc(C)c2c(=O)cc(C(=O)NCc3ccc(S(N)(=O)=O)cc3)oc2c1 | 4%
110 | O=C(COc1ccc(Br)cc1Cl)NC(=O)NC1CCCC1 | -17%
111 | Cc1cc(C)n2cc(CSc3nnnn3-c3ccc(Cl)cc3)nc2n1 | -9%
112 | O=C(NC1CCCC1)C(c1ccccc1)N(Cc1ccc2c(c1)OCO2)C(=O)Cc1cccs1 (stereo unspecified) | -8%
113 | COc1cccc(NC(=O)COC(=O)c2ccccc2C(=O)N(C)c2ccccc2)c1 | -14%

# Part of the list above, with each value named.
111. Cc1cc(C)n2cc(CSc3nnnn3-c3ccc(Cl)cc3)nc2n1
  VDR inh: -9%
102. CC(=O)c1ccc(N2CCN(C(=O)c3ccc(NC4=NC5CS(=O)(=O)CC5S4)cc3)CC2)cc1 (stereo unspecified)
  VDR inh: -21%
110. O=C(COc1ccc(Br)cc1Cl)NC(=O)NC1CCCC1
  VDR inh: -17%
113. COc1cccc(NC(=O)COC(=O)c2ccccc2C(=O)N(C)c2ccccc2)c1
  VDR inh: -14%
